Biofilm kill mix: mixtures killing C. albicans biofilm; inhibition, % at 7.6 µM; C. albicans biofilm persisters + clotrimazole, fluorescence viability; primary screen in compound mixtures of four per well; 0.02% of 120,000 active;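 active = inhibition above 30.3% in the primary screen of four-compound pools, then above 30% when the compound was retested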;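 also: compounds exposed to preformed 24 h biofilms for 48 h; the number belongs to the whole pool; some results filed as inactive read as strong as hits; inactives centre near 12; 0% = biofilm with clotrimazole alone and 100% = kill control; retested singly at about 60 µM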
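Probe or stimulus – Clotrimazole 50 µg/mL co-treatment · System – C. albicans biofilms · Schedule – 24 h biofilm formation, then 48 h compound exposure, 37 °C · Evaluation – percent inhibition of biofilm viability · Technique – 2-h Alamar Blue fluorescence, 535/590 nm excitation/emission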
* = called active by the depositor. An excerpt (hit frequency here may not be typical).

What do the screens show for `O=C(CNc1cccc(C(F)(F)F)c1)N/N=C/c1ccccc1C(=O)O`?
Biofilm kill mix: 17.2

What do the screens show for `CC(NC(=S)NC1CCCCC1)C(c1ccccc1)N1CCOCC1` (centres undefined)?
Biofilm kill mix: 7.3

Results for Nc1nc(SCc2ccc([N+](=O)[O-])cc2)nc2nc3c(cc12)CCCC3 ?
Biofilm kill mix: 26.1

How did Cc1ccc(C2(CC(=O)Nc3nccs3)CCOC(C(C)C)C2)cc1 (centres undefined) do in these assays?
Biofilm kill mix: 19.9

What do the screens show for `O=C(O)Cn1c2ccccc2c2ccccc21`?
Biofilm kill mix: 9.8

Results for COc1ccccc1CNCc1cccc(Oc2ccccc2)c1 ?
Biofilm kill mix: 11.5

What do the screens show for `Cc1ccc(Cl)cc1-c1ccc(/C=N/n2cnnc2)o1`?
Biofilm kill mix: -9.0

How did CCN(CC)C(=O)CSC1=C(C#N)C(c2ccco2)C(C(=O)OCCOC)=C(C)N1 (centres undefined) do in these assays?
Biofilm kill mix: 3.7

How did CCCCOC(=O)Nc1ccccc1C(=O)N1CCCC1 do in these assays?
Biofilm kill mix: 14.1

How did COc1ccc(F)cc1C(=O)C1CCCN(C(=O)c2ocnc2C)C1 (centres undefined) do in these assays?
Biofilm kill mix: 28.0

Results for O=C(O)CCCC(=O)Nc1ccc(OCc2nc3ccccc3s2)cc1 ?
Biofilm kill mix: 4.1

How did Cc1ccc(C)c(-n2cc(CN3CCNC(=O)CC3)c(-c3ccccc3)n2)c1 do in these assays?
Biofilm kill mix: 34.0

Results for O=C(CNC1CCCCC1)NN=C(c1ccccc1)c1ccccc1 ?
Biofilm kill mix: 12.1

Results for COc1ccc(C)cc1NC(=O)C(OC(=O)CNC(=O)c1ccc(Br)cc1)c1ccccc1 (centres undefined) ?
Biofilm kill mix: 4.4

How did O=C1Oc2ccccc2C(=O)/C1=C\N1CCN(c2ccccc2)CC1 do in these assays?
Biofilm kill mix: 10.6

What do the screens show for `O=[N+]([O-])c1ccc2c(c1)N([O-])C1(CCCCC1)[N+]2=O`?
Biofilm kill mix: 12.2

What do the screens show for `O=C(CSc1nc(-c2ccc(F)cc2)nc2c1Cc1ccccc1O2)Nc1cccc(C(=O)O)c1`?
Biofilm kill mix: 12.2

Results for COC(=O)/C=C/c1ccccc1S(=O)(=O)N(Cc1ccccc1)Cc1ccco1 ?
Biofilm kill mix: 13.3

How did O=C(NC(=S)Nc1ccc(C(F)(F)F)cc1)c1csnn1 do in these assays?
Biofilm kill mix: 9.7

What do the screens show for `O=C(C1CCN(C2CCN(Cc3cccc4c3OCO4)CC2)CC1)N1CCOCC1`?
Biofilm kill mix: 19.5

Results for CCc1ccc(NC(=S)NC2CC3CCCC(C2)N3Cc2ccccc2)cc1 (centres undefined) ?
Biofilm kill mix: 12.3

How did CCCOc1ccc(C(=O)O/N=C(\CC)c2ccc(C)cc2)cc1 do in these assays?
Biofilm kill mix: 11.2

What do the screens show for `CS(=O)(=O)N1CCN(c2ccc([N+](=O)[O-])c3cccnc23)CC1`?
Biofilm kill mix: 23.7

How did CCN(CC(=O)NCc1ccc(F)cc1)C(=O)COc1ccc2ccccc2c1 do in these assays?
Biofilm kill mix: 6.6

What do the screens show for `Nc1nc2ccc(-c3nc4ccccc4o3)cc2s1`?
Biofilm kill mix: 24.7

How did CCN(CC)CCN(CC(=O)N(C1CCCCC1)C1CCCCC1)C(=O)c1ccco1 do in these assays?
Biofilm kill mix: 12.2

What do the screens show for `CCOc1ccc(NC(=O)Cn2cncc2-c2ccc([N+](=O)[O-])cc2)cc1`?
Biofilm kill mix: 8.8

How did CC(Sc1nc2c([nH]c3ccccc32)c(=O)n1C)c1ccccc1 (centres undefined) do in these assays?
Biofilm kill mix: 15.4

What do the screens show for `Cc1nc(N2CCC(C)CC2)c2c(C)c(C(=O)Nc3cc(F)ccc3C)sc2n1`?
Biofilm kill mix: 5.5

Results for C/C(=N\Nc1cc(C)nc(-c2ccccc2O)n1)c1ccccc1O ?
Biofilm kill mix: 14.6

What do the screens show for `CC1CCCC(C)N1C(=O)Cn1cc(C#N)c2ccccc21` (centres undefined)?
Biofilm kill mix: 17.0

Results for CCCC1NC(=S)NC(C)=C1C(C)=O (centres undefined) ?
Biofilm kill mix: 2.9

What do the screens show for `Cc1nnsc1-c1c(C(=O)N2CCOCC2)c(C)nn1-c1ccc(Cl)cc1`?
Biofilm kill mix: 16.2

Results for Cc1cccc(NS(=O)(=O)c2ccc3nc(-c4ccccc4)[nH]c3c2)c1C ?
Biofilm kill mix: 2.9

How did Cn1nc([N+](=O)[O-])nc1Sc1cccc2cccnc12 do in these assays?
Biofilm kill mix: 6.6

How did CCn1c(C)c(C(C)=O)cc(C#N)c1=O do in these assays?
Biofilm kill mix: 14.8

What do the screens show for `Cc1ccc(C)c(OCCSc2nnc(C)c(=O)[nH]2)c1`?
Biofilm kill mix: 15.6

How did S=C1NC2=C(CCCC2=C2SCCS2)C(c2ccccc2)N1 (centres undefined) do in these assays?
Biofilm kill mix: -6.5

How did O=c1cc(CN2CCN(c3ccccn3)CC2)nc2sccn12 do in these assays?
Biofilm kill mix: 9.5

What do the screens show for `O=C(O)CNC(=S)N(Cc1cccs1)C1CCCCC1`?
Biofilm kill mix: 12.9

Nine entries out of the list, ordered by count of non-hydrogen atoms, highest first.
What do the screens show for `Cc1nc(N2CCC(C)CC2)c2c(C)c(C(=O)Nc3cc(F)ccc3C)sc2n1`?
Biofilm kill mix: 5.5

Results for Cc1cccc(NS(=O)(=O)c2ccc3nc(-c4ccccc4)[nH]c3c2)c1C ?
Biofilm kill mix: 2.9

Results for C/C(=N\Nc1cc(C)nc(-c2ccccc2O)n1)c1ccccc1O ?
Biofilm kill mix: 14.6

How did CC(Sc1nc2c([nH]c3ccccc32)c(=O)n1C)c1ccccc1 (centres undefined) do in these assays?
Biofilm kill mix: 15.4

How did O=c1cc(CN2CCN(c3ccccn3)CC2)nc2sccn12 do in these assays?
Biofilm kill mix: 9.5

What do the screens show for `CC1CCCC(C)N1C(=O)Cn1cc(C#N)c2ccccc21` (centres undefined)?
Biofilm kill mix: 17.0

What do the screens show for `O=C(O)CNC(=S)N(Cc1cccs1)C1CCCCC1`?
Biofilm kill mix: 12.9

How did CCn1c(C)c(C(C)=O)cc(C#N)c1=O do in these assays?
Biofilm kill mix: 14.8

Results for CCCC1NC(=S)NC(C)=C1C(C)=O (centres undefined) ?
Biofilm kill mix: 2.9

(continued)
How did O=C(N/N=C/c1ccccc1OC(F)F)C1=COCCO1 do in these assays?
Biofilm kill mix: 8.1

Results for Cc1ccccc1N(CC(=O)Nc1ccc(S(=O)(=O)N2CCOCC2)cc1)S(C)(=O)=O ?
Biofilm kill mix: -10.5

Results for CC(=O)Nc1ccc(S(=O)(=O)N(C)CC(=O)N/N=C/c2cccc(O)c2)cc1 ?
Biofilm kill mix: 8.5

How did CCC(CC)c1nnc(NC(=O)Cc2ccccc2[N+](=O)[O-])s1 do in these assays?
Biofilm kill mix: 21.7

How did CC1(C)Cc2c(sc(NC(=O)Cc3ccccc3)c2C#N)CO1 do in these assays?
Biofilm kill mix: 3.7

Results for COc1c(O)ccc(C2NC(=O)NC(C)=C2C(=O)Nc2ccccc2C)c1[N+](=O)[O-] (centres undefined) ?
Biofilm kill mix: 20.7

What do the screens show for `COc1cccc(/C=N/NC(=O)c2cnccn2)c1O`?
Biofilm kill mix: 19.1

How did Cc1cc(NC(=O)CCl)n(-c2nc3ccccc3s2)n1 do in these assays?
Biofilm kill mix: -3.1

What do the screens show for `Cc1nc(Nc2ccccc2)sc1C(=O)c1ccccc1`?
Biofilm kill mix: 12.1

Results for CC1(C)O[C@H]2OC([C@H](O)CON3C(=O)c4ccccc4C3=O)[C@H](O)[C@H]2O1 (some centres undefined) ?
Biofilm kill mix: 12.2

What do the screens show for `Fc1ccc(CSc2nnc(-c3ccco3)o2)cc1`?
Biofilm kill mix: 1.7

What do the screens show for `CN(C)/C=N/c1c(C#N)cnn1C`?
Biofilm kill mix: 15.2

How did c1ccc(-c2nnsc2-c2ncc[nH]2)cc1 do in these assays?
Biofilm kill mix: 4.2

How did CCOC(=O)c1ccc(N2CCN(C(C)=O)CC2)c(NC(=O)c2cccnc2)c1 do in these assays?
Biofilm kill mix: 12.8

How did O=C(CSc1ccccc1)Nc1nccs1 do in these assays?
Biofilm kill mix: 9.1

Results for NS(=O)(=O)c1ccc(NC(=S)Nc2ccc(C(=O)N3CCCCC3)cc2)cc1 ?
Biofilm kill mix: 7.0

How did CCOC(=O)C1=C(C)NC(=S)NC1c1ccco1 (centres undefined) do in these assays?
Biofilm kill mix: 14.3

What do the screens show for `CC(C)(C)CC(=O)Nc1nnc(SCC(=O)NCc2cccs2)s1`?
Biofilm kill mix: 22.2

How did Cn1c(=NC(=O)c2ccc(S(=O)(=O)N3CCCc4ccccc43)cc2)sc2cc(S(C)(=O)=O)ccc21 do in these assays?
Biofilm kill mix: -0.2

What do the screens show for `CN(Cc1cc([N+](=O)[O-])c2cccnc2c1O)C1CCCCC1`?
Biofilm kill mix: 18.8

Results for Cc1ccc(-n2c(SCCN)nnc2-c2cccc(C)c2)cc1 ?
Biofilm kill mix: 11.6

What do the screens show for `CNC(=O)CSc1nnc(-c2cnccn2)n1C`?
Biofilm kill mix: 10.0

How did N/C(COc1cccc(Cl)c1)=N\O do in these assays?
Biofilm kill mix: 1.9

Results for FC(F)Oc1ccc(-c2csc(NNC3=NCCCCC3)n2)cc1 ?
Biofilm kill mix: 7.8

What do the screens show for `c1cc2nc(C34CC5CC(CC(C5)C3)C4)[nH]c2cn1`?
Biofilm kill mix: 4.5

What do the screens show for `O=C(O)c1ccccc1-c1ccccc1C(=O)Nc1nc2ccccc2s1`?
Biofilm kill mix: 19.1

What do the screens show for `CCCCOc1ccc(C(C)NC(=O)CCS(=O)(=O)Cc2ccccc2Cl)cc1` (centres undefined)?
Biofilm kill mix: 16.4

What do the screens show for `O=c1c2c(nc3n1CCS3)c1cc(F)ccc1n2Cc1cc(=O)n2cc(Cl)ccc2n1`?
Biofilm kill mix: 11.8

How did O=CN1CCN(C(C(=O)NC2CCCCC2)c2cc3c(cc2[N+](=O)[O-])OCO3)CC1 (centres undefined) do in these assays?
Biofilm kill mix: 12.2

What do the screens show for `O=C(Nc1ccc2ccccc2c1)C(c1ccccc1)C1CCCC1` (centres undefined)?
Biofilm kill mix: -0.3

Results for COc1ccc(/C=C/C(=O)c2ccc3c4c(cccc24)CC3)cc1 ?
Biofilm kill mix: 13.8

How did Cc1cccc(-n2c(O)cnc2Nc2nc(C)cc(C)n2)c1 do in these assays?
Biofilm kill mix: 4.1

What do the screens show for `COc1ccc(NC(=S)N(CCCN2CCC(C)CC2)Cc2cccs2)cc1Cl`?
Biofilm kill mix: 1.3

Results for O=C(CSc1nc2cc(Cl)ccc2s1)Nc1cccc(S(=O)(=O)N2CCOCC2)c1 ?
Biofilm kill mix: 13.8

How did Cc1ccc(-c2nc(CN(C)Cc3cccc4cnccc34)c(C)o2)s1 do in these assays?
Biofilm kill mix: 13.3

How did O=C(CSc1nnc(-c2ccncc2)o1)N1CCCCCC1 do in these assays?
Biofilm kill mix: 29.3

How did N/C(=N\OC(=O)Cc1cccs1)c1ccc(Br)cc1 do in these assays?
Biofilm kill mix: 6.0

Results for COc1ccc(NC(=O)c2cc(Br)ccc2Cl)c(OC)c1 ?
Biofilm kill mix: 12.8

How did O=C(NCc1cccnc1)C(=O)NCC1CCCO1 (centres undefined) do in these assays?
Biofilm kill mix: 15.7

Results for CCC1=NN(C(=O)C(=O)Nc2ccc(Br)cc2)C(O)(C(F)(F)F)C1 (centres undefined) ?
Biofilm kill mix: 15.8

What do the screens show for `Cc1cc(C)c2c(=O)c(C#N)coc2c1`?
Biofilm kill mix: 15.6

How did COc1cc(NS(=O)(=O)c2ccc(N/C=C\C(=O)c3ccc(OC)c(OC)c3)cc2)nc(OC)n1 do in these assays?
Biofilm kill mix: 14.4

What do the screens show for `CN(C(=O)CCc1nnc(CCCCc2ccccc2)o1)C1CCOCC1`?
Biofilm kill mix: 0.6

How did COC(=O)C1=C(NC(C)=O)CCS1 do in these assays?
Biofilm kill mix: 15.1

What do the screens show for `CC(C)(C)c1ccc(C(=O)Nc2ccc(NC(=O)C(=O)O)cc2)o1`?
Biofilm kill mix: 9.8

How did CCCNC(=O)Nc1nnc(C2CC2)s1 do in these assays?
Biofilm kill mix: 15.0

What do the screens show for `CCO[C@@H]1OC(C(=O)Nc2ccccc2)=C[C@H](c2ccc(C(F)(F)F)cc2)[C@H]1CCCO`?
Biofilm kill mix: 13.4

How did CC(=O)Nc1cccc(-c2nc3ccccc3s2)c1C do in these assays?
Biofilm kill mix: -0.6

Results for O=C(NNc1nc(-c2ccccc2)c2cc(Br)ccc2n1)c1ccc(S(=O)(=O)N2CCCCC2)cc1 ?
Biofilm kill mix: 14.4

Results for CCN(CC)C(=O)CS(=O)(=O)CC(=O)Nc1cc(OCCOC)c(Cl)cc1Cl ?
Biofilm kill mix: 11.8

How did CC1(C)C2CCC(C2)C1(C)NC(=O)CN1CCN(Cc2ccccc2)CC1 (centres undefined) do in these assays?
Biofilm kill mix: 17.9

How did O=C(c1ccccn1)N1CCN(S(=O)(=O)c2ccccc2)CC1 do in these assays?
Biofilm kill mix: 6.6

What do the screens show for `COc1cc(C(C)=O)ccc1Oc1ncnc2c1cnn2-c1ccc(F)cc1`?
Biofilm kill mix: 10.3

What do the screens show for `Cc1ccn(-c2cc(O)c(-n3ccc(C)n3)cc2O)n1`?
Biofilm kill mix: 17.0

Results for Cc1cccc(N2NC(=O)/C(=C/c3ccc(-c4ccc(Cl)c(C(=O)O)c4)o3)C2=O)c1 ?
Biofilm kill mix: 32.2

High-throughput results: PubChem, PCMD
